Screens from PubChem.
HIV TAR-Tat = HIV-1 TAR-Tat binding disruption. HIV-1 TAR RNA, Tat peptide displacement FRET; active compounds read high. z-score (test concentration not listed). 0.6% of 100,000 active;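 also: score is relative to mean and SD of negative controls; some compounds called inactive have numbers as strong as hits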
CDC25B-CDK2 inh = human CDC25B-CDK2/CyclinA binding inhibition. z-score (test concentration not listed). 0.72% of 94,000 active. AID 1259370. P30305+P24941. HTRF CDC25B-CDK2/CyclinA binding, anti-His/anti-Flag; active compounds read high;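 also: score is relative to mean and SD of negative controls; strong numbers were not always called active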
* hit, by the source's call; & = joins results of further samples.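 The calls were made as follows: active = z-score from 3 up in half or more of its runs; inactive = the rest.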

`CC1=NC2c3c(oc(C(=O)NCC4CCCO4)c3C)CCC2S1` (stereo not drawn) gave HIV TAR-Tat 1.46.
For COC(=O)c1ccc(Oc2nc(N(C)C)nc(N3CCOCC3)n2)cc1 the results were HIV TAR-Tat 0.51 and CDC25B-CDK2 inh 0.04.
Screening COCCNC(=O)C1c2ccccc2C(=O)N1c1ccc2c(c1)OCCO2 (stereo not drawn) returned HIV TAR-Tat 0.9.
CCCCC(=O)N1CCN(Cc2noc(CCC(=O)N3CCC(C)CC3)n2)CC1 was read as HIV TAR-Tat 0.7.
Screening Cc1ccc2cc(C)c(N3CCC(C)CC3)nc2c1 returned HIV TAR-Tat -0.48 and CDC25B-CDK2 inh 0.26.
Screening CSc1cccc(NS(=O)(=O)c2ccc3c(c2)oc(=O)n3C)c1 returned CDC25B-CDK2 inh -0.04.
For CN(C)/C=C/C=C1C(=O)OC(C)(C)OC1=O the results were CDC25B-CDK2 inh -3.53.
`COC(=O)c1c(NC(=O)c2cc(=O)c3cc(Cl)ccc3o2)sc2c1CCC2` gave HIV TAR-Tat -1.44 and CDC25B-CDK2 inh -2.34.
`Cc1ccc(-c2nc(-c3ccncc3)no2)c(Cl)c1` gave HIV TAR-Tat 1.34 and CDC25B-CDK2 inh -0.95.
Screening COc1cc(CNCCSc2nnnn2C)ccc1OCc1c(F)cccc1Cl returned HIV TAR-Tat -1.16 and CDC25B-CDK2 inh -1.51.
For CN(CCN1C(=O)c2cc3sccc3n2CC1(C)C(=O)NC1CCCCC1)C1CCCCC1 (stereo not drawn) the results were HIV TAR-Tat 2.56 and CDC25B-CDK2 inh -2.01.
Screening O=c1c(NCc2cccs2)nccn1-c1cccc(F)c1 returned HIV TAR-Tat -0.01.
CCCn1c2ccccc2c2cnn(CC(=O)N3CCOCC3)c(=O)c21 was read as HIV TAR-Tat 1.74.
O=C(N/N=C/c1c(Cl)cccc1Cl)c1cc(-c2cccc([N+](=O)[O-])c2)n[nH]1 was read as CDC25B-CDK2 inh 2.92.
CCOCCn1c(CN2CCN(CC)CC2)nc2c1c(=O)n(C)c(=O)n2C was read as CDC25B-CDK2 inh 0.16.
Screening CC(CC(=O)Nc1ccccc1Cl)S(=O)(=O)c1ccc2c(c1)CCN2C(=O)C1CC1 (stereo not drawn) returned HIV TAR-Tat 1.71.
Screening CC(C)(C)c1ccc(OCc2nnc(-c3ccccc3Cl)o2)cc1 returned HIV TAR-Tat 1.85 and CDC25B-CDK2 inh 0.14.
`Cc1cccc(C)c1Nc1nc2ccccc2c2nncn12` gave HIV TAR-Tat -0.49 and CDC25B-CDK2 inh -1.44.
For COc1ccc(-c2ccnc3[nH]n(-c4nc(C)cc(C)n4)c(=O)c23)cc1 the results were HIV TAR-Tat 1.6 and CDC25B-CDK2 inh -4.45.
Screening Cc1ccc(Nc2nc(C3(C)CC4(CC(C)OC4=O)C(=O)O3)cs2)cc1 (stereo not drawn) returned CDC25B-CDK2 inh -0.11.
`COc1ccc(C2/C(=C(/O)c3ccc(C)cc3)C(=O)C(=O)N2c2ccc(O)cc2)cc1` (stereo not drawn) gave HIV TAR-Tat 1.84 and CDC25B-CDK2 inh -2.82.
`O=c1c(Oc2ccccc2Br)c(C(F)(F)F)oc2c(CN3CCCC3)c(O)ccc12` gave HIV TAR-Tat -0.61 and CDC25B-CDK2 inh 0.84.
Cn1nc(OC(C)(C)C(=O)Oc2ccc(Cl)cc2Cl)cc1C(F)(F)F was read as CDC25B-CDK2 inh -1.19.
CCOc1ccc2ncc(S(=O)(=O)c3ccc(Cl)cc3)c(N3CCCC3)c2c1 was read as HIV TAR-Tat 0.17 and CDC25B-CDK2 inh 1.08.
Screening CC(C)(C)c1ccc(OCC(=O)Nc2nc(-c3ccc(Br)o3)ns2)cc1 returned HIV TAR-Tat -0.21 and CDC25B-CDK2 inh -0.38.
Screening O=C1c2oc3ccccc3c(=O)c2C(c2cccc(O)c2)N1c1nccs1 (stereo not drawn) returned HIV TAR-Tat -0.13 and CDC25B-CDK2 inh -0.56.
Screening CC(C)CCNC(=O)CCS(=O)(=O)c1cc(Br)cc2c1N(C(=O)C1CC1)CC2 returned CDC25B-CDK2 inh -1.39.
For Cc1cc(NC(=O)c2cn(-c3ccc(F)cc3)nn2)ccc1-n1cnnn1 the results were HIV TAR-Tat -0.57 and CDC25B-CDK2 inh 0.03.
For O=C(c1cnn2c(C(F)F)cc(-c3ccccc3)nc12)N1CCCCC1 the results were HIV TAR-Tat 0.87 and CDC25B-CDK2 inh 0.68.
Screening Cc1ccc(S(=O)(=O)N2CCN(c3cc(N4CCOCC4)nc(C)n3)CC2)c(C)c1 returned HIV TAR-Tat 1.63 and CDC25B-CDK2 inh -0.7.

Grouped by structure, those above containing fluorine.
Screening COc1cc(CNCCSc2nnnn2C)ccc1OCc1c(F)cccc1Cl returned HIV TAR-Tat -1.16 and CDC25B-CDK2 inh -1.51.
Screening O=c1c(NCc2cccs2)nccn1-c1cccc(F)c1 returned HIV TAR-Tat -0.01.
`O=c1c(Oc2ccccc2Br)c(C(F)(F)F)oc2c(CN3CCCC3)c(O)ccc12` gave HIV TAR-Tat -0.61 and CDC25B-CDK2 inh 0.84.
Cn1nc(OC(C)(C)C(=O)Oc2ccc(Cl)cc2Cl)cc1C(F)(F)F was read as CDC25B-CDK2 inh -1.19.
For Cc1cc(NC(=O)c2cn(-c3ccc(F)cc3)nn2)ccc1-n1cnnn1 the results were HIV TAR-Tat -0.57 and CDC25B-CDK2 inh 0.03.
For O=C(c1cnn2c(C(F)F)cc(-c3ccccc3)nc12)N1CCCCC1 the results were HIV TAR-Tat 0.87 and CDC25B-CDK2 inh 0.68.

Continuation.
O=C(O)C1CSC2(CCN(Cc3ccccc3)CC2)N1 (stereo not drawn) was read as CDC25B-CDK2 inh 0.24.
`CN1CCN(C(=O)CSCc2nc3cccnc3n2C2CCCCC2)CC1` gave HIV TAR-Tat -0.38.
Screening Cc1ccccc1-c1nc2scc(CCNS(=O)(=O)CCc3ccccc3)n2n1 returned HIV TAR-Tat 0.55.
Screening COc1ccc(NN=C(C#N)C#N)c([N+](=O)[O-])c1 returned CDC25B-CDK2 inh 0.04.
Cc1ccc2oc(=O)n(C(=O)c3cccs3)c2c1 was read as HIV TAR-Tat -1.24.
For Cc1nc(C(F)(F)F)ccc1C(=O)N1CCN(c2nc3ccc(Cl)cc3s2)CC1 the results were CDC25B-CDK2 inh -0.06.
COC(=O)CC1Oc2ccc(F)cc2-n2cc(-c3ccc(C)cc3)nc21 (stereo not drawn) was read as HIV TAR-Tat 1.72 and CDC25B-CDK2 inh -2.04.
O=C(Cc1noc2ccccc12)NCc1ccco1 was read as HIV TAR-Tat 0.32 and CDC25B-CDK2 inh -1.09.
CC(C)CN(CC(C)C)C(=O)c1cc(S(=O)(=O)N2CCOCC2)cn1C was read as HIV TAR-Tat 2.04.
For Cc1nc2scc(C)n2c(=O)c1S(=O)(=O)NCc1ccco1 the results were HIV TAR-Tat 0.7 and CDC25B-CDK2 inh 0.
O=C(NCCc1ccco1)c1cc(-c2ccccn2)nc2ccccc12 was read as HIV TAR-Tat 0.77.
For COc1nccn(-c2cc(F)cc(F)c2)c1=O the results were HIV TAR-Tat 1.45 and CDC25B-CDK2 inh -1.04.
`O=S1(=O)CC2N=C(N(Cc3ccc(Cl)cc3)c3ccccc3)SC2C1` (stereo not drawn) gave HIV TAR-Tat 0.68 and CDC25B-CDK2 inh -0.77.
COc1ccc(N2CC(c3nc4ccccc4n3C(C)C)CC2=O)cc1 (stereo not drawn) was read as HIV TAR-Tat 1.92 and CDC25B-CDK2 inh -2.24.
`CCCCNC(=O)C1CCN(c2nn3c(=O)c4c(nc3s2)CCCC4)CC1` gave HIV TAR-Tat -0.65.
For CCOC(=O)c1csc(-c2snnc2C)n1 the results were CDC25B-CDK2 inh -1.07.
For Cn1c(=O)oc2cc(S(=O)(=O)NC(Cc3ccccc3)C(=O)NC3CCCC3)ccc21 (stereo not drawn) the results were HIV TAR-Tat 2.84 and CDC25B-CDK2 inh -0.88.
Screening NC(N)=N/C(N)=N/c1nnc(C(F)(F)F)s1 returned CDC25B-CDK2 inh -1.31.
For Cc1ccc(Nc2ncnc3c2nc2n3CCCC2)cc1Cl the results were HIV TAR-Tat 1.22.
For Cc1ncc(-c2ccc(C)c(S(=O)(=O)Nc3ccc(F)c(F)c3)c2)o1 the results were HIV TAR-Tat 1.26.
For Fc1ccc2c(c1)[C@H]1OCC[C@H]1[C@@H](c1ccco1)N2 the results were CDC25B-CDK2 inh -1.52.
`CCc1nc(C)cc(N)c1OCc1ccccc1` gave CDC25B-CDK2 inh 0.69.
Cc1nc2nc[nH]n2c(=O)c1NS(=O)(=O)c1ccc(CC(C)C)cc1 was read as HIV TAR-Tat 1.33 and CDC25B-CDK2 inh -1.69.
Screening CCN1C(C(=O)OC)=C(OC(C)=O)c2ccccc2S1(=O)=O returned HIV TAR-Tat 0.24 and CDC25B-CDK2 inh -1.05.
For CCc1ccc(Oc2coc3cc(OC(C)C(=O)OC(C)C)ccc3c2=O)cc1 (stereo not drawn) the results were CDC25B-CDK2 inh -0.3.
For CNC(=O)CN1C(=O)c2ccccc2S1(=O)=O the results were HIV TAR-Tat 0.4 and CDC25B-CDK2 inh -1.01.
O=C(Cn1c2ccccc2n2nc(-c3ccccc3)nc12)c1cccs1 was read as HIV TAR-Tat 0.55 and CDC25B-CDK2 inh 0.68.
Cc1ccc(Cn2c(=O)oc3ccc(C(=O)Nc4nccs4)cc32)cc1 was read as HIV TAR-Tat 0.89.
`CN(C)c1ccc(CN(CC2CCCO2)C(=O)c2cc(-c3ccccc3)on2)cc1` (stereo not drawn) gave HIV TAR-Tat -0.4 and CDC25B-CDK2 inh -0.63.
O=C(Sc1ccccc1)c1cccc(=O)o1 was read as CDC25B-CDK2 inh -2.2.
`CCOC(=O)c1c(C)[nH]c(C)c1S(=O)(=O)N1CCCC(C(=O)NC2CC2)C1` (stereo not drawn) gave HIV TAR-Tat 0.64.
`O=C(NCc1nnc(SCC(=O)N2CCc3ccccc32)n1-c1ccc(F)cc1)c1ccco1` gave HIV TAR-Tat 2.74 and CDC25B-CDK2 inh -0.15.
For CN1C(=O)c2cc(C(=O)NCC3CCCO3)nn2CC1(C)C(=O)NC1CCCC1 (stereo not drawn) the results were HIV TAR-Tat 0.57.
For Cc1cc(C)c(OCC(O)CN2CCN(Cc3ccc4c(c3)OCO4)CC2)c(C)c1 (stereo not drawn) the results were CDC25B-CDK2 inh -0.77&-0.83.
Cc1cc(C)cc(NS(=O)(=O)c2ccc(N3CCCCS3(=O)=O)cc2)c1 was read as HIV TAR-Tat -0.08.
`CN(C)CCN1C(C(=O)c2ccccc2)=C(OC(=O)c2ccco2)c2ccccc2S1(=O)=O` gave HIV TAR-Tat 0.45 and CDC25B-CDK2 inh 0.68.
CC(C)NC(=O)CNC(=O)Cn1ccc2ccccc2c1=O was read as CDC25B-CDK2 inh 1.25.
`COC(=O)c1sc(NC(=O)c2ccco2)nc1C` gave HIV TAR-Tat 2.2 and CDC25B-CDK2 inh -1.8.
For COc1ccc(C)cc1Nc1c(C)c(C)nc2ncnn12 the results were HIV TAR-Tat 1.6.
For CCOC(=O)c1noc2c1CCc1sccc1-2 the results were HIV TAR-Tat 0.79 and CDC25B-CDK2 inh -0.43.
Cc1cc(C)c(C#N)c(SC(C(=O)Nc2ccc3c(c2)OCO3)c2ccccc2)n1 (stereo not drawn) was read as CDC25B-CDK2 inh -1.02.
Screening Cc1cccn2c(=O)c(C(=O)N3CCCCC3)cnc12 returned HIV TAR-Tat -1.46.
Cc1cc(NC(=O)N2CCC3(CC2)Nc2cc(F)ccc2-n2cccc23)ccc1Br was read as HIV TAR-Tat -0.68.
For CC1CN(Cc2c(O)ccc3c2oc(=O)c2ccccc23)CC(C)O1 (stereo not drawn) the results were HIV TAR-Tat 2.12 and CDC25B-CDK2 inh -2.45.
Screening NC(=O)C1CCN(c2c3c(nc4nncn24)CCC3)CC1 returned HIV TAR-Tat 0.99 and CDC25B-CDK2 inh -2.29.

Of the compounds above, four contain a CF3 group:
`O=c1c(Oc2ccccc2Br)c(C(F)(F)F)oc2c(CN3CCCC3)c(O)ccc12` gave HIV TAR-Tat -0.61 and CDC25B-CDK2 inh 0.84.
Cn1nc(OC(C)(C)C(=O)Oc2ccc(Cl)cc2Cl)cc1C(F)(F)F was read as CDC25B-CDK2 inh -1.19.
For Cc1nc(C(F)(F)F)ccc1C(=O)N1CCN(c2nc3ccc(Cl)cc3s2)CC1 the results were CDC25B-CDK2 inh -0.06.
Screening NC(N)=N/C(N)=N/c1nnc(C(F)(F)F)s1 returned CDC25B-CDK2 inh -1.31.

(list continues)
Screening O=S(=O)(Nc1cccnc1)c1ccc(C2CCCCC2)cc1 returned HIV TAR-Tat 0.64 and CDC25B-CDK2 inh 0.85.
Screening COc1ccc(C2CC(=O)C3=C(C2)Nc2nc4ccccc4n2C3c2ccc(F)cc2)cc1 (stereo not drawn) returned HIV TAR-Tat 1.28 and CDC25B-CDK2 inh -0.91.
Screening Cc1nn2c(=O)cc(CSc3ccccc3C(=O)O)nc2s1 returned HIV TAR-Tat 1.49 and CDC25B-CDK2 inh -0.83.
CCN1C(C(=O)c2ccccc2)=C(OC(=O)c2ccccc2)c2ccccc2S1(=O)=O was read as CDC25B-CDK2 inh -2.11.
Screening O=C(CCS(=O)(=O)c1cc2c(cc1Cl)NC(=O)CO2)Nc1ccc(Br)cc1F returned HIV TAR-Tat -4.33.
CCOC(=O)c1c(/N=C/c2c(O)c([N+](=O)[O-])cc3oc4c(c23)CCCC4)sc(C)c1C was read as CDC25B-CDK2 inh -2.39.
Screening Cc1ccc2[nH]cc(NC(=O)NCCCN3CCCCC3C)c(=O)c2c1 (stereo not drawn) returned HIV TAR-Tat 0.18 and CDC25B-CDK2 inh -0.95.
CCc1ccc(S(=O)(=O)NCCc2sc(-c3cccc(F)c3)nc2C)s1 was read as HIV TAR-Tat -0.57.
`N#Cc1cc2c(=O)n3ccccc3nc2n(Cc2ccccc2)c1=O` gave HIV TAR-Tat -0.24 and CDC25B-CDK2 inh -1.63.
Screening CS(=O)(=O)CS(=O)(=O)Oc1cccc(C(F)(F)F)c1 returned CDC25B-CDK2 inh -0.44.
